Bioassay records as filed in PubChem BioAssay.
ugtP null kill: growth inhibition of ugtP-null S. aureus, primary screen, RN4220 ugtP deletion, OD600. 16 h; some inactives read as strong as hits. growth inhibition, % (no concentration beside the values). hit rate 0.54% among 330,000;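 active = z-score under -3 and OD600 up to 0.15 on both plates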;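 also: plate controls were untreated wells for no effect and antibiotic for full effect; wells of about 80 µL received 100 nL stock; the first replicate is given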
BJeLR lethal: MLPCN primary cell-based screen for lethality selective to Ras in HRASV12 cells; hit rate 0.17% among 300,000; inhibition, % (concentration not given with the values); BJeLR (HRASV12) viability, CellTiter-Glo ATP luminescence, 48 h; reference of the scale not given here;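 active = replicate mean above 50%; inconclusive = above 50% but judged a plate artefact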;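 also: 50 nL library stock added to about 25 µL; numbers are from one replicate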
Mtb hypoxia inh: PubChem AID 1159583; M. tuberculosis hypoxia-regulated fluorescent reporter, fluorescence; fluorescence inhibition, % (test concentration not listed); hit rate 0.1% among 300,000;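 active = 35 to 45% if threefold the growth effect, above 45% if 1.5-fold the growth effect; inactive = the rest, general growth blockers included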;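 also: wells of about 50 µL received 100 nL stock; 0% = vehicle wells and 100% = reference inhibitor wells; whole bacteria with a GFP reporter of the hypoxia response; strong numbers were not always called active; many hits fall short of the cut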
PrP UTR inh: inhibition of PrP 5' UTR reporter expression. hit rate 0.35% among 340,000. cell-based PrP 5' UTR mRNA reporter, plate reader. inhibition, % (no concentration beside the values);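 active = every replicate at 50% or more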;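 also: 0 = median of the neutral control wells; tested in H4 reporter cells; numbers are from one replicate; inactives centre near -14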
Sa RN4220 lethal: growth inhibition of S. aureus RN4220, primary screen, OD600; hit rate 0.33% among 330,000; AID 1259311, 2017; 16 h; inhibition, % (test concentration not listed);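 active = z-score of -3 or lower and OD600 up to 0.18 on both plates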;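 also: plate controls were untreated cells for no effect and reference antibiotic for full effect; stock transfer was 100 nL into about 80 µL; one replicate is shown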
Bead autofluor: compound fluorescence in toxin protease inhibitor counterscreen; compound autofluorescence counterscreen, microsphere flow cytometry; active compounds read high; fluorescence intensity (test concentration not listed); hit rate 3.1% among 360,000; AID 624483;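 active = at least 3 SD above the mean of all compounds, about 16000 in these data; inconclusive = too few beads counted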;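 also: 100 nL of 1 mM stock went into each well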
Mtb hypoxia inh growth: further read-out of Mtb hypoxia inh, marked with its call; growth inhibition, %; measured here: M. tuberculosis growth (absorbance);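 0% = vehicle and 100% = reference antibiotic; read after six days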
Starred values were filed as active, the others as inactive; ? = inconclusive; . = not tested or not shown.

Results follow in this order: ugtP null kill	BJeLR lethal	Mtb hypoxia inh	Mtb hypoxia inh growth	PrP UTR inh	Sa RN4220 lethal	Bead autofluor
- CCCC(=O)NC(c1ccc(OCC)cc1)c1ccc(OC)c(OC)c1 (configuration not stated)
  5	-3	3	9	.	3.3	5832
- CCN(CC)S(=O)(=O)c1cccc(C(=O)N2CCCc3ccccc32)c1
  8	-8	17	1	-12	7.8	3865
- COCCN(C(=O)CCC(=O)Nc1ccccn1)C(C(=O)NC1CCCC1)c1ccc(OC)cc1 (configuration not stated)
  -5	-3	.	.	-15	3.8	3076
- CCN(C1CCS(=O)(=O)C1)S(=O)(=O)c1cccc([N+](=O)[O-])c1 (configuration not stated)
  11	-11	0	-4	-24	10	3795
- O=C(NCCCCO)C(F)(F)C(F)(F)C(F)(F)C(=O)NCCCCO
  2	6	2	7	-13	5.5	8180
- Cc1ccc([N+](=O)[O-])c(OCCN2CCC(Cc3ccccc3)CC2)c1
  0	2	-10	-6	-15	-7.1	4693
- COc1ccc(S(=O)(=O)N(CCC(=O)O)Cc2ccccc2)cc1
  .	1	.	.	-7	.	4557
- COc1ccc(-c2cc(C)no2)cc1S(=O)(=O)Nc1ccc(NC(C)=O)cc1
  6	9	8	-3	-14	0.0	4271
- COc1ccc(CCN=Cc2ccc(O)cc2)cc1OC
  3	-5	6	10	-19	3.4	3681
- O=C(Cn1nc(C(=O)O)c2ccccc2c1=O)c1c[nH]c2ccccc12
  8	-1	15	4	-3	3.7	4005
- Cc1nnc(N2CCCC(C(=O)NCc3ccccc3F)C2)c2nn(-c3ccccc3)c(C)c12 (configuration not stated)
  12	10	5	3	-34	-0.5	13838
- CCOc1ccc(CC(=O)NN=C(C)c2cccnc2)cc1
  3	.	7	4	.	-9.2	.
- COc1ccc(/C=N/NC(=O)c2ccc(CSc3nc(C)cc(C)n3)cc2)c(OC)c1OC
  .	1	.	.	5	.	2511
- CN(C)c1ccc(CNn2cnnc2)cc1
  14	-6	5	-4	-7	6.0	5139
- O=[N+]([O-])c1ccc(C2[C@H]3C(c4ccccc4)=NC4(CCCCC4)N23)cc1 (some centres not stated)
  7	-5	1	-3	-2	2.2	2201
- CC(C)=CC(=O)OC1C2C(CC(C)C3C(O)CC(=O)[C@@]13C)OC(=O)C2C (some centres not stated)
  3	.	22	4	.	5.2	.
- Cc1nnc(SCC(N)=O)n1CCc1ccccc1
  3	-5	7	7	4	-0.1	10353
- CCN(CC)CCNC(=O)c1ccc(CS(=O)(=O)c2ccc(Br)cc2)o1
  8	-2	.	.	-52	1.0	6018
- Cc1ccc(S(=O)(=O)N2CCOCC2)cc1NC(=O)Cn1ccsc1=N
  -5	-9	20	8	-14	-12	2977
- Cc1ccc2c(c1)[nH]c1c(=O)n(CCCN3CCOCC3)cnc12
  -9	5	.	.	-18	-4.1	2320
- CC(=O)CC[C@@H](C)O[C@@H]1OC(C)[C@H](O)CC1O (some centres not stated)
  .	-10	.	.	-3	.	3057
- COc1ccc(-c2cnn(C3CCS(=O)(=O)C3)c2N)cc1 (configuration not stated)
  5	1	10	-4	-18	9.1	3025
- CC(C)CNC(=O)c1ccccc1NC(=O)CN(c1ccccc1)S(=O)(=O)N(C)C
  -2	-1	-3	12	6	-1.4	3438
- C=CCN1C(=O)/C(=C\c2ccc(Cl)cc2)N=C1SCC(=O)NCCC
  -6	-4	9	-6	-14	-7.4	2451
- COc1ccccc1-c1cn[nH]c1-c1ccc(OCc2ccccc2F)cc1O
  18	-1	15	9	1	-4.3	4184
- CCOC(=O)C1CCN(c2nc3ccccc3nc2C(C#N)C(=O)OC(C)COC)CC1 (configuration not stated)
  -3	7	-2	12	-2	2.8	4308
- Cc1ccnc(NC(=O)c2ccc([N+](=O)[O-])s2)c1
  16	4	16	10	-37	1.6	4743
- CCC1(CC)C(=O)C2=C3C(CC(C(=O)OC)=CC(C(=O)OC)C31)C1C(=O)NC(=O)C1C2C (configuration not stated)
  0	.	20	7	.	8.9	.
- COc1cc(CN2CCNC(=O)C2CC(=O)N(C)Cc2cccnc2)cc(OC)c1 (configuration not stated)
  11	-13	7	6	-6	1.4	2408
- O=C(c1nc2ccc(Cl)cn2c1CN1CCCC1)N1CCc2ccccc2C1
  .	-2	.	.	-8	.	6571
- CCC(C(=O)OC)n1cnc2c(nnn2-c2ccc(F)cc2)c1=O (configuration not stated)
  19	8	9	6	-7	7.5	4799
- CC(C)[C@H](NC(=O)OC(C)(C)C)C(=O)N/N=C/c1cccc2nccnc12
  .	-13	.	.	-15	.	8321
- CCSc1nnc(SCC(=O)N2CCN(C(=O)c3ccco3)CC2)s1
  -3	14	2	-9	-50	-7.7	?
- CCN1CCN(CC(=O)N2N=CCC2c2ccccc2)CC1 (configuration not stated)
  2	-7	1	1	-26	1.5	3985
- CC(C)C[C@H](NC(=O)c1[nH]cnc1C(=O)N[C@@H](Cc1ccccc1)C(=O)OCc1ccccc1)C(=O)OC(C)(C)C
  .	8	.	.	-16	.	3578
- CCCC(=O)Nc1c(-c2ccccc2)c(=O)c(C)nn1-c1ccccc1
  -2	5	11	3	-9	5.4	6395
- O=C(Nc1nccs1)C1CCCN1/C=C/C(=O)C(F)(F)F (configuration not stated)
  7	-6	15	-4	-17	4.7	4187
- COc1ccc(CCNC(=O)C2CCCN(S(=O)(=O)c3cccc4nonc34)C2)cc1OC (configuration not stated)
  4	-2	.	.	-21	4.5	4485
- CCCC(c1nnnn1Cc1ccco1)N1CCN(C2CCCC2)CC1 (configuration not stated)
  2	-12	.	.	6	-6.4	3466
- COc1ccc(CNC(=O)Cn2cc(C(F)(F)F)ccc2=O)cc1OC
  2	-17	5	11	-34	1.1	3552
- COCC1CCN(C(=O)c2ccc3oc(Cc4ccc(Cl)cc4)nc3c2)C1 (configuration not stated)
  10	-8	2	-4	-7	3.3	4306
- COc1ccc(C(=O)Nc2ccc(Oc3ncnc4sc(-c5ccccc5)cc34)cc2)cc1OC
  3	8	-5	0	-11	3.8	2250
- Cc1cc(=O)[nH]c(-c2ccccc2O)n1
  6	2	1	-5	-33	1.5	11355
- Cc1csc(NC(=O)CSc2nnc(-c3ccoc3C)n2Cc2ccco2)n1
  5	9	.	.	-9	9.5	3596
- Cc1ccc(C(=O)N(CC(=O)NC2CCCC2)c2ccc(F)cc2)s1
  3	-2	-3	-4	-11	-3.1	3132
- O=C(NN=Cc1ccncc1)c1ccc(COc2cccc3cccnc23)cc1
  8	.	-18	-4	.	3.7	.
- O=C(NC1CN2CCC1CC2)c1ccc(-c2ccc([N+](=O)[O-])cc2)o1 (configuration not stated)
  -1	-4	1	4	-14	4.0	1916
- COc1ccc(C2Nc3ccccc3C(=O)N2c2ccc(C)cc2)cc1Cn1nc(C)c([N+](=O)[O-])c1C (configuration not stated)
  -5	-12	3	9	-83	-1.1	7954
- Cc1ccc(OCC(=O)Nc2oc(-c3ccccc3)c(-c3ccccc3)c2C#N)cc1
  8	-22	.	.	-37	-11	3149
- CCCN1CCC(NC(=O)CC2C(=O)NCCN2Cc2ccccc2C)CC1 (configuration not stated)
  16	-4	0	-4	10	5.8	4410
- O=C(Cc1ccccc1)N1CCN(c2ncccn2)CC1
  9	-2	13	12	-14	-1.3	4245
- O=C(CSc1ccccc1F)NCCN1C(=O)CSC1=O
  2	.	-13	-3	-5	2.5	?
- COc1ccc(N=Cc2c(O)n(C)c(=O)[nH]c2=O)cc1
  5	9	18	14	-14	0.3	2847
- Cc1ccc(-c2cc(C(=O)Nc3ccccc3C)c3ccccc3n2)o1
  -13	6	5	4	-25	4.4	8532
- COc1ccc(OCCOC(=O)c2nc3nccc(C)n3n2)cc1
  -2	-1	5	0	-28	2.0	2691
- CCOC(=O)Nc1sc(C(=O)N(CC)CC)c(C)c1C(=O)OCC
  9	-1	8	9	-15	2.1	9414
- O=C(NN=Cc1ccc(N2CCOCC2)cc1)c1ccc(NS(=O)(=O)c2cccs2)cc1
  -1	.	5	8	.	-1.6	.
- CCC(=O)OCC(=O)Nc1cc(S(=O)(=O)N(C)C)ccc1Cl
  5	2	-7	-1	-25	-1.8	4808
- COc1ccc(CNC(=O)Cn2ncn3c(cc4ccccc43)c2=O)cc1
  16	4	0	5	-14	4.6	4020
- CCCCCCC(=O)N(O)C1CC(=O)N(c2ccc(Cl)cc2)C1=O (configuration not stated)
  -4	-6	-1	-3	-22	0.9	2980

Laid out differently: entries from further up.
O=C(CSc1ccccc1F)NCCN1C(=O)CSC1=O
  ugtP null kill: 2
  BJeLR lethal: .
  Mtb hypoxia inh: -13
  Mtb hypoxia inh growth: -3
  PrP UTR inh: -5
  Sa RN4220 lethal: 2.5
  Bead autofluor: ?
COc1ccc(N=Cc2c(O)n(C)c(=O)[nH]c2=O)cc1
  ugtP null kill: 5
  BJeLR lethal: 9
  Mtb hypoxia inh: 18
  Mtb hypoxia inh growth: 14
  PrP UTR inh: -14
  Sa RN4220 lethal: 0.3
  Bead autofluor: 2847
Cc1ccc(-c2cc(C(=O)Nc3ccccc3C)c3ccccc3n2)o1
  ugtP null kill: -13
  BJeLR lethal: 6
  Mtb hypoxia inh: 5
  Mtb hypoxia inh growth: 4
  PrP UTR inh: -25
  Sa RN4220 lethal: 4.4
  Bead autofluor: 8532
COc1ccc(OCCOC(=O)c2nc3nccc(C)n3n2)cc1
  ugtP null kill: -2
  BJeLR lethal: -1
  Mtb hypoxia inh: 5
  Mtb hypoxia inh growth: 0
  PrP UTR inh: -28
  Sa RN4220 lethal: 2.0
  Bead autofluor: 2691

Continuation.
Results follow in this order: ugtP null kill	BJeLR lethal	Mtb hypoxia inh	Mtb hypoxia inh growth	PrP UTR inh	Sa RN4220 lethal	Bead autofluor
- CCNC(=S)N1CCCC(C(N)=O)C1 (configuration not stated)
  9	6	8	8	-27	3.1	4649
- COCCN(C(=O)COc1ccccc1C#N)c1c(N)n(Cc2ccccc2)c(=O)[nH]c1=O
  12	-8	3	2	-19	4.6	6096
- Cc1cccc(C)c1NS(=O)(=O)c1cc2c3c(c1)CCN3C(=O)CC2
  6	0	-2	-9	-21	8.8	4632
- CCc1ccc(C(C)=NNC(=O)c2ccc(-n3cnnn3)cc2)cc1
  1	.	19*	50*	.	5.4	.
- Cn1c(=O)n(CCOc2ccccc2Cl)c2ccccc21
  -9	9	.	.	-55	2.1	4888
- Cc1ccc2c(c1)nnn2C1CCN(S(=O)(=O)c2cccc(S(=O)(=O)N(C)C)c2)CC1
  -1	5	4	6	-19	4.7	8768
- Cn1c(N)c(C(=O)COC(=O)/C=C/c2cccc(Cl)c2)c(=O)n(C)c1=O
  -6	.	5	4	8	2.1	3735
- Cc1cc(NC(=O)/C(C#N)=C\c2ccc(-c3ccc(SC(F)F)cc3)o2)n(-c2ccccc2)n1
  -4	.	11	6	-17	8.0	4508
- CCCCN(Cc1ccccc1)C(=O)C1CCN(Cc2sccc2C)CC1
  1	-2	11	7	-21	1.2	2117
- CC(C)C(=O)Nc1cccc(-c2nc3ccccc3c(=O)o2)c1
  0	-5	19	15	-16	11	3311
- COc1ccccc1CC(NC(C)=O)C(=O)N1CCN(C(=O)c2cccs2)CC1 (configuration not stated)
  -1	-4	.	.	2	0.3	2805
- COc1ccc(S(=O)(=O)NCc2ccc(C(=O)NCc3cccnc3)cc2)cc1
  3	8	16	3	.	-0.5	.
- COc1cc(C=NNC(=O)c2ccc(NC(=O)C3CC3)cc2)ccc1OC(C)=O
  -1	.	8	1	.	-0.5	.
- COc1cccc(C=NNC(=O)C(=O)NCc2cccnc2)c1O
  6	.	6	9	.	5.2	.
- O=C(NN=Cc1ccco1)C1CC1
  -2	.	13	8	.	5.3	.
- Cc1ccc(S(=O)(=O)N2CCOCC2)cc1NC(=O)COC(=O)c1ccc2c(c1)OCCO2
  -72	8	6	6	-14	9.3	3375

Another view of part of the listing above:
smiles: COc1cccc(C=NNC(=O)C(=O)NCc2cccnc2)c1O
  ugtP null kill = 6; BJeLR lethal = .; Mtb hypoxia inh = 6; Mtb hypoxia inh growth = 9; PrP UTR inh = .; Sa RN4220 lethal = 5.2; Bead autofluor = .

smiles: O=C(NN=Cc1ccco1)C1CC1
  ugtP null kill = -2; BJeLR lethal = .; Mtb hypoxia inh = 13; Mtb hypoxia inh growth = 8; PrP UTR inh = .; Sa RN4220 lethal = 5.3; Bead autofluor = .

smiles: Cc1ccc(S(=O)(=O)N2CCOCC2)cc1NC(=O)COC(=O)c1ccc2c(c1)OCCO2
  ugtP null kill = -72; BJeLR lethal = 8; Mtb hypoxia inh = 6; Mtb hypoxia inh growth = 6; PrP UTR inh = -14; Sa RN4220 lethal = 9.3; Bead autofluor = 3375
